RN4220 kill – kills Staphylococcus aureus RN4220; S. aureus RN4220 growth, OD600, 16 h; inhibition, % (test concentration not listed); 330,000 tested, 0.33% active; AID 1259311;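 active = z-score of -3 or lower and OD600 up to 0.18 on both plates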;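 note: plate controls were untreated cells for no effect and reference antibiotic for full effect; stock transfer was 100 nL into about 80 µL; one replicate is shown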
Sa ugtP lethal – compounds lethal to S. aureus RN4220 ugtP deletion mutant; OD600 growth, 16 h; some inactives read as strong as hits; growth inhibition, % (test concentration not listed); AID 1259309; 330,000 tested, 0.54% active;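 active = z-score under -3 and OD600 up to 0.15 on both plates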;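 note: plate controls were untreated wells for no effect and antibiotic for full effect; wells of about 80 µL received 100 nL stock; the first replicate is given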
Bead autofluor – flagged as autofluorescent in microsphere protease counterscreen | compound autofluorescence counterscreen, microsphere flow cytometry; hits give high values | fluorescence intensity (no concentration beside the values) | 360,000 tested, 3.1% active | AID 624483;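 active = at least 3 SD above the mean of all compounds, about 16000 in these data; inconclusive = too few beads counted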;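 note: 100 nL of 1 mM stock went into each well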
BJeLR lethal – BJeLR cell viability loss; BJeLR (HRASV12) viability, CellTiter-Glo ATP luminescence, 48 h; reference of the scale not given here; inhibition, % (test concentration not listed); 300,000 tested, 0.17% active; AID 1554;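 active = replicate mean above 50%; inconclusive = above 50% but judged a plate artefact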;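 note: 50 nL library stock added to about 25 µL; numbers are from one replicate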
Mtb hypoxia rep – reduces hypoxia-regulated biosensor signal in M. tuberculosis; M. tuberculosis hypoxia-regulated fluorescent reporter, fluorescence; AID 1159583; 300,000 tested, 0.1% active; fluorescence inhibition, % (concentration not given with the values);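 active = 35 to 45% if threefold the growth effect, above 45% if 1.5-fold the growth effect; inactive = the rest, general growth blockers included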;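 note: wells of about 50 µL received 100 nL stock; 0% = vehicle wells and 100% = reference inhibitor wells; whole bacteria with a GFP reporter of the hypoxia response; strong numbers were not always called active; many hits fall short of the cut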
PrP UTR inh – inhibition of PrP 5' UTR reporter expression; cell-based PrP 5' UTR mRNA reporter, plate reader; inhibition, % (no concentration beside the values); 340,000 tested, 0.35% active;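 active = every replicate at 50% or more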;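 note: 0 = median of the neutral control wells; tested in H4 reporter cells; numbers are from one replicate; inactives centre near -14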
Mtb hypoxia rep growth – also measured in Mtb hypoxia rep; calls as there; growth inhibition, %; measured here: M. tuberculosis growth (absorbance);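 0% = vehicle and 100% = reference antibiotic; read after six days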
The depositor's hits bear a star; ? = inconclusive; . = no result given. Outcome played no part in choosing rows; any-hit rate near 4.1%.

A first look (5 entries):
SMILES | RN4220 kill | Sa ugtP lethal | Bead autofluor | BJeLR lethal | Mtb hypoxia rep | Mtb hypoxia rep growth | PrP UTR inh
COC(=O)CCCC1=CC2=C(c3ccccc3)C(=O)C(C)(OC(=O)C3CCCC3)C(=O)C2=CN1C1CCCC1 (stereo not given) | -2.0 | -3 | 4132 | 1 | 5 | 8 | -11
CCOC(=O)CSc1nc2sc3c(c2c(=O)n1CC)CC(C)(C)OC3 | 5.6 | 8 | 12394 | 1 | 13 | 19 | -20
COc1ccc(COC(=O)C2=C(C)NC(=O)NC2c2ccc(O)c(OC)c2)cc1 (stereo not given) | 3.5 | 0 | 7549 | -1 | 2 | -4 | -15
CCCN1CCC(=O)N([C@H](CO)c2ccccc2)CC1 | . | . | 3630 | 6 | . | . | -26
O=C(CCN1C(=O)/C(=C\c2ccc(F)cc2)SC1=S)Nc1ccc(O)cc1 | -1.2 | -5 | 5030 | -10 | 1 | 10 | -14

This part in full (from the top)
SMILES | RN4220 kill | Sa ugtP lethal | Bead autofluor | BJeLR lethal | Mtb hypoxia rep | Mtb hypoxia rep growth | PrP UTR inh
COC(=O)CCCC1=CC2=C(c3ccccc3)C(=O)C(C)(OC(=O)C3CCCC3)C(=O)C2=CN1C1CCCC1 (stereo not given) | -2.0 | -3 | 4132 | 1 | 5 | 8 | -11
CCOC(=O)CSc1nc2sc3c(c2c(=O)n1CC)CC(C)(C)OC3 | 5.6 | 8 | 12394 | 1 | 13 | 19 | -20
COc1ccc(COC(=O)C2=C(C)NC(=O)NC2c2ccc(O)c(OC)c2)cc1 (stereo not given) | 3.5 | 0 | 7549 | -1 | 2 | -4 | -15
CCCN1CCC(=O)N([C@H](CO)c2ccccc2)CC1 | . | . | 3630 | 6 | . | . | -26
O=C(CCN1C(=O)/C(=C\c2ccc(F)cc2)SC1=S)Nc1ccc(O)cc1 | -1.2 | -5 | 5030 | -10 | 1 | 10 | -14
FC(F)(F)c1cccc(CN2CCN(c3ncccn3)CC2)c1 | -2.2 | 0 | 4407 | -6 | -7 | 13 | -4
CC(=O)c1c(C)nc(-c2ccc(Cl)cc2Cl)n1O | -0.8 | 6 | 2154 | 17 | . | . | -28
COc1ccc(C(O)c2nc3ccccc3n2C)cc1OC (stereo not given) | 4.7 | 8 | 8116 | -4 | 5 | 10 | -2
Cc1cc(C)cc(Oc2ccc(NC(=O)C3CC=CCC3C(=O)O)cc2)c1 (stereo not given) | 4.1 | 4 | 4056 | . | 12 | 8 | -28
CCOC(=O)CSc1nnc(CNC(=O)Cc2ccccc2)n1C | 2.1 | 7 | 8309 | -8 | 8 | 3 | -22
CCCCOC1(c2ccccc2)OC(=O)c2ccccc21 (stereo not given) | 2.1 | 42 | 11299 | 14 | 10 | 3 | .
CCn1c(/C=C/c2cccc([N+](=O)[O-])c2)nc2ccccc2c1=O | 6.9 | 5 | 4122 | 4 | 8 | 8 | -19
CN1CCN(c2ccc(S(=O)(=O)N3CCCCC3)cc2NC(=O)Cc2c(F)cccc2Cl)CC1 | 4.8 | 7 | 6862 | -10 | 4 | 7 | -4
Cc1ccc(Cl)cc1N1CCN(CC(=O)Nc2ccc3[nH]c(=O)[nH]c3c2)CC1 | 4.7 | -2 | 19567* | 11 | 4 | 3 | -47
COC(=O)Cn1c(=O)c2c(nc3n2CCCN3CCc2ccccc2)n(C)c1=O | 1.4 | 4 | 4230 | 3 | -4 | 3 | -2
Cc1c(C(=O)NCc2cccs2)oc2ccc(Br)cc12 | 1.5 | 5 | ? | 2 | 7 | 4 | -33
CCOc1ccc(S(=O)(=O)N(C)c2ccc(OCC(=O)Nc3nccs3)cc2)cc1 | 1.2 | -2 | 3208 | -7 | -3 | 5 | -20
O=C(c1ccc(Cl)cc1)N1CCC(O)(CSc2ccccc2)CC1 | 0.0 | 5 | 2035 | -2 | . | . | -7
c1cc2c3c(cccc3c1)C(N1CCCCCC1)=N2 | 0.2 | 2 | 8755 | -22 | -79 | -9 | -12
C=CCn1c(SCC(=O)OCc2ccccc2)nc2c1c(=O)n(C)c(=O)n2C | 6.2 | -6 | 9856 | -1 | -4 | -4 | -16
C/C(=C1/SC(=S)N(CCC(=O)O)C1=O)c1ccc(O)cc1 | . | . | 2529 | 4 | . | . | -6
O=C(Nc1ccccc1)Nc1ncc([N+](=O)[O-])s1 | 23 | 11 | 4414 | 22 | 25 | 32 | -50
CCOc1cc(/C=N/NC(=O)COc2nc(C)cc(COC)c2C#N)ccc1O | . | . | 2751 | 0 | . | . | -20
O=C(C(Cc1ccccc1)NS(=O)(=O)c1ccc(F)cc1)N1CCC2(CC1)OCCO2 (stereo not given) | 3.2 | 0 | 5903 | 7 | . | . | -4
COc1ccccc1C(=O)O/N=C(\N)c1ccc(Cl)cc1 | 2.5 | 6 | 15292 | -10 | 6 | 4 | -69
COc1ccc(C(=O)C2CCCN(C(=O)c3ccccc3C(C)=O)C2)cc1F (stereo not given) | -1.0 | 1 | 2029 | 4 | 1 | 0 | -24
O=C1CCc2cc(NS(=O)(=O)c3ccccc3)cc3c2N1CC3 | 2.8 | 12 | ? | -1 | 5 | 0 | -12
Cc1ccc(NC(=O)c2ccc3c(c2)S(=O)(=O)c2ccccc2C3=O)cc1S(=O)(=O)N1CCOCC1 | -1.7 | -9 | 3607 | 15 | -11 | -1 | -11
COc1cccc2cc(-c3nc4ccccc4[nH]3)c(=O)oc12 | 3.0 | -2 | 3612 | -14 | -6 | -1 | -72
CCCc1cc(Nc2ccccc2C)n2ncnc2n1 | 3.0 | -4 | 3177 | 8 | 10 | 6 | -13
CC(C)c1nc(SCC(=O)N2CCN(c3ccccc3)CC2)c2c(=O)n(C)c(=O)n(C)c2n1 | . | . | 5833 | -4 | . | . | -8
COc1cc(C=NNc2nc3ccccc3[nH]2)cc(OC)c1OC | 5.2 | -3 | . | . | -55 | 19 | .
Cc1ccc(C(=O)N/C(=C\c2ccc(-c3ccccc3[N+](=O)[O-])o2)C(=O)NCCN(C)C)cc1 | 1.0 | 3 | 2869 | -10 | 4 | -1 | -27
c1coc(CNCC2OCCc3ccccc32)c1 (stereo not given) | 4.6 | 4 | 8238 | 6 | 12 | 5 | -25
Cn1c(Nc2ccccc2)nc2ccccc21 | 2.0 | 0 | 4801 | -5 | -7 | -6 | -24
COc1ccc(NC(C)=O)cc1NC(C)C(=O)Nc1ccc(F)c(F)c1F (stereo not given) | -2.1 | 10 | 3155 | -4 | 8 | 4 | -16
Cc1cccc(NC(=O)Nc2ccc(S(=O)(=O)Nc3onc(C)c3C)cc2)c1 | 4.7 | 1 | 8815 | . | 6 | 3 | -53
CC(C)C(C(=O)NCC1CCCO1)N(C(=O)CNS(=O)(=O)c1ccccc1)c1ccc(F)cc1 (stereo not given) | 4.5 | 6 | 3708 | -3 | -3 | 4 | -39
Nc1ncnc2c1ncn2C1OC(C(=O)NC2CC2)C(O)C1O (stereo not given) | 4.1 | 4 | 4440 | . | 6 | 1 | -23
Cc1nc2nc(Cc3ccccc3)[nH]n2c(=O)c1Cl | 1.1 | 6 | 4787 | -6 | . | . | -19
COc1ccc(CNC(=O)CCn2ccc3cc(S(=O)(=O)N4CCCC4)ccc32)cc1 | 4.3 | 12 | 4364 | 0 | -1 | -8 | 4
Cc1cc(C)nc(NC(=O)c2cc3ccccc3o2)n1 | 2.6 | -6 | 11170 | 6 | 3 | 3 | -31
O=C(NN=Cc1c(O)ccc2ccccc12)c1cccnc1 | 7.2 | 8 | . | . | -4 | 10 | .
Clc1ccc(Nc2nc(-c3ccncc3)cs2)cc1 | 4.8 | -3 | 2486 | 18 | 14 | 7 | -76
Cc1ccc([N+](=O)[O-])cc1N/C=C1\CCCCC1=O | 17 | -5 | 4905 | 4 | 14 | 9 | -32
Nc1ccc(C(CC(=O)O)n2cccc2)cc1 (stereo not given) | 2.2 | 5 | 4737 | -2 | -5 | 3 | -14
O=C(COc1ccc2ccccc2c1)N/N=C/c1ccccn1 | . | . | 4674 | 3 | . | . | -10
COc1cc(NC(=O)CSc2nc3[nH]ncc3c(=O)n2-c2ccccc2C)cc(OC)c1OC | 13 | 0 | 2201 | -18 | 6 | 2 | -37
CCn1c(=N)n(CC(=O)C23CC4CC(CC(C4)C2)C3)c2ccccc21 | -4.0 | -27 | 3095 | -11 | 6 | 1 | -8
Cc1cc(C)c(C)c(S(=O)(=O)NCCCN2CCCC2=O)c1C | 2.7 | 0 | 6408 | 3 | 5 | 5 | -3
COc1cccc(NC(=O)Cn2nnc(C(=O)NCc3cccs3)c2N)c1 | 5.6 | -2 | 5225 | -6 | 2 | 6 | -16
CCCSc1nc2c(cnn2-c2ccc(Cl)cc2)c(=O)[nH]1 | 5.3 | -8 | 10055 | -10 | 4 | 8 | 10
COc1ccc(-n2c(SCC(=O)Nc3nccs3)nnc2-c2ccc(Cl)cc2)cc1 | 3.7 | 1 | 4904 | . | 7 | -4 | -16
COc1ccccc1C(=O)NC(=O)COC(=O)C1CC2CCCC(C1)C2=O (stereo not given) | -2.8 | -2 | 5182 | 9 | -9 | -17 | -14
COc1ccc(CC(=O)N(Cc2ccccc2)c2cccc(C)c2)cc1OC | 3.2 | 12 | 4212 | -4 | 21 | 5 | 5
O=C1NCCCC1C(=O)NN=Cc1ccccc1[N+](=O)[O-] (stereo not given) | 2.4 | 9 | . | . | 12 | 10 | .
O=C(Nc1ccccc1)Nc1ccc2ccccc2n1 | 0.9 | -13 | 3830 | 5 | -1 | 2 | -37
CCC(=O)N(Cc1cc(=O)[nH]c2ccccc12)c1cccc(C)c1 | 5.5 | -10 | 2570 | . | -3 | 3 | -21
N#CC1=C(N)Oc2n[nH]c(-c3ccccc3)c2C1c1ccsc1 (stereo not given) | 8.8 | -4 | . | 17 | 5 | 6 | -20
N#Cc1ccc(Cn2cc(C(=O)c3ccco3)c3ccccc32)cc1 | 3.4 | -3 | 4112 | 7 | 2 | -2 | -14
More entries.
SMILES | RN4220 kill | Sa ugtP lethal | Bead autofluor | BJeLR lethal | Mtb hypoxia rep | Mtb hypoxia rep growth | PrP UTR inh
COC(=O)c1ccc(CN2CCSC2=N)cc1 | 0.1 | 3 | 5395 | 6 | 4 | 3 | -18
COCC(C)n1c(SCC(=O)NC2CCCCC2C)nc2ccccc2c1=O (stereo not given) | 1.3 | 1 | 2937 | . | 8 | 8 | -7
NC(=O)COC(=O)c1cccc(NS(=O)(=O)/C=C/c2ccccc2)c1 | 4.3 | 1 | 7629 | 3 | 6 | 7 | -12
CCOc1ccc(NC(=O)C2CCN(S(=O)(=O)c3cccnc3)CC2)cc1 | 4.8 | 1 | 12547 | -2 | 2 | 0 | -7
O=C(CCCc1ccccc1)N1CCc2ccccc21 | 4.9 | 9 | 8186 | 6 | 20 | 10 | -87
CCCc1nc(SCC(=O)NCc2ccco2)c2c(=O)n(C)c(=O)n(C)c2n1 | -0.5 | 5 | 5477 | -13 | 14 | 10 | -5
COc1ccc(CCNc2c(N)n(Cc3ccccc3)c(=O)[nH]c2=O)cc1OC | 4.2 | 2 | 2321 | -2 | . | . | -6
O=[N+]([O-])c1ccc(N(CC(O)CN2CCCCC2)S(=O)(=O)c2ccccc2)cc1 (stereo not given) | -1.0 | 0 | 5852 | 0 | 4 | -2 | -16
CN(C)S(=O)(=O)N(CC(=O)N1CCN(c2ccccc2)CC1)c1ccccc1 | 1.7 | 1 | 4210 | -2 | 9 | 1 | -28
CCOC(=O)C(=CNNc1ccsc1C(=O)OC)C(=O)OCC | 4.9 | 9 | 6475 | -10 | 6 | 14 | -21
CC(C)Cc1ccc(S(=O)(=O)Nc2ccccn2)cc1 | 3.8 | 4 | 4657 | 7 | -8 | -2 | -28
CC1CCC(NC(=O)CN2C(=O)C3CC=CCC3C2=O)CC1 (stereo not given) | -1.9 | -4 | 3809 | . | -8 | 7 | -4
Cc1[nH]c(=O)[nH]c(=O)c1S(=O)(=O)Nc1ccc(Br)cc1F | 0.7 | 5 | 4077 | 9 | 6 | 3 | -2
NC(=O)C[C@@H]1NC(=O)[C@H](CCC(=O)O)NC(=O)c2cc([N+](=O)[O-])cc(I)c2OCC[C@@H](C(N)=O)NC1=O | . | . | 4015 | 0 | . | . | -9
CC(C)(C)C(=O)NC(=S)NNC(=O)c1ccc(Cl)cc1Cl | 50 | 32 | 4933 | 8 | 12 | 21 | -11
CN(C(=O)COC(=O)Cc1ccc(Cl)cc1)C1CCCCC1 | 5.4 | 10 | 2782 | . | 8 | 8 | -2
CCC1C/C(=C/c2cccs2)C(=O)/C(=C/c2cccs2)C1 (stereo not given) | -10 | 95* | 9594 | -4 | 12 | 2 | -15

Screens deposited in PubChem by several laboratories.
